Menin-MLL FL inh = qHTS Assay for Inhibitors Targeting the Menin-MLL Interaction in MLL Related Leukemias: Competition With Fluorescein Labeled MLL-derived Peptide; Fluorescence polarization, fluorescein-MLL peptide displacement from menin; FP activity change, % at 61.4 µM; 290,000 tested, under 10 active; inconclusive = falling polarisation curve, or a change in total fluorescence; inactive = total fluorescence flat and polarisation flat or rising; no compound was filed as active; the % refers to the polarisation; negative = inhibition;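 note: % of control where 0% means no effect; inhibitors lower the polarisation; unlabelled MLL peptide was the positive control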
gsp antagonist = qHTS for Antagonists of gsp, the Etiologic Mutation Responsible for Fibrous Dysplasia/McCune-Albright Syndrome: qHTS; Potency, µM (highest dose often 76.9 µM), inactives show top-dose activity change, negative = inhibition, usual class: inhibitors; hit rate 0.4% among 340,000; AID 624288, 2012; gsp-mutant cells, cAMP HTRF, 30 min; control for the full effect not named in the record; active = falling curve of any shape with a large fitted effect; inconclusive = falling curve, mostly with a smaller effect; inactive = flat or rising curve; cell line not stated here;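 note: intracellular cAMP measured with PDE inhibitor Ro 20-1724 present during compound exposure; potency is the fitted concentration of half-maximal effect; % is set by controls: 0 for no effect and ±100 for the full control effect; nearly all actives have a fitted effect of over 65% in size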
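HTRF cAMP read-out (cAMP-d2 plus anti-cAMP antibody-K in lysis buffer, 30 min RT). Before lysis, cells are exposed to compounds with […] for 30 min at 37C in DPBS containing Ca/Mg, BSA and Tween 20.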
TRPV1 potentiator = HTS Assay for Compounds that Act as Potentiators of the Vanilloid Receptor 1; Transient receptor potential cation channel subfamily V member 1 (Homo sapiens), Q8NER1; TRPV1-expressing cells, Fluo-8 calcium influx, capsaicin EC20 potentiation; host cell line not named in the record; control for the full effect not named in the record; potentiation, % at 8.33 µM; hit rate 0.02% among 320,000; AID 540277, 2011; active means potentiation above 80%; inconclusive means 30% to 80%; inactive means below 30%; note: 0% is about no effect
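Cells expressing TRPV1 were dye-loaded with Fluo-8 and read kinetically: 10 s baseline, 3 min after compound (agonist portion), then 2 min after EC20 capsaicin (allosteric enhancer portion). Calcium-bound dye fluorescence at 480/520 nm.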
gsp agonist = qHTS for Agonist of gsp, the Etiologic Mutation Responsible for Fibrous Dysplasia/McCune-Albright Syndrome: qHTS; gsp mutant cells, cAMP HTRF, 30 min; control for the full effect not named in the record; Potency, µM (titrated, usually from 76.9 µM), without a hit: at the highest dose activation (cAMP increase), hits mostly activators; hit rate 0.13% among 340,000; AID 624287, 2012; active = well fitted activation curve with a large enough effect; inconclusive = small, poorly fitted or top-dose-only effect, or another doubt; inactive = no such curve, though single readings can be large or run the other way; cell line not stated here;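 note: phosphodiesterase inhibitor Ro 20-1724 added with compounds to block cAMP breakdown; potency is the fitted concentration of half-maximal effect; nearly all actives have a fitted effect of over 60% in size; about a fifth of the inactives were tested at one dose only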
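Cells in DMEM/10% FBS with G418 were pretreated with compounds in DMSO plus […] (300 uM stock) for 30 min at 37C. cAMP was measured by HTRF (cAMP-d2 plus anti-cAMP antibody-K) after 30 min at room temperature.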
D2 potentiator = Beta-Arrestin HTS for Positive Allosteric Modulators of the Human D2 Dopamine Receptor: Potentiators; D(2) dopamine receptor (Homo sapiens), P14416; DiscoveRx D2 beta-arrestin cells, luminescence, 90 min; 100% = 57 uM dopamine signal; potentiation, % (test concentration not listed); hit rate 0.23% among 360,000; AID 624464, 2012; active = potentiation of 50% or more; inconclusive = 30% to 50%; inactive = 30% or less;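 note: compound concentration not given in the record; tested on top of an EC20 dose of dopamine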
Target sequence (P14416 whole entry, looked up): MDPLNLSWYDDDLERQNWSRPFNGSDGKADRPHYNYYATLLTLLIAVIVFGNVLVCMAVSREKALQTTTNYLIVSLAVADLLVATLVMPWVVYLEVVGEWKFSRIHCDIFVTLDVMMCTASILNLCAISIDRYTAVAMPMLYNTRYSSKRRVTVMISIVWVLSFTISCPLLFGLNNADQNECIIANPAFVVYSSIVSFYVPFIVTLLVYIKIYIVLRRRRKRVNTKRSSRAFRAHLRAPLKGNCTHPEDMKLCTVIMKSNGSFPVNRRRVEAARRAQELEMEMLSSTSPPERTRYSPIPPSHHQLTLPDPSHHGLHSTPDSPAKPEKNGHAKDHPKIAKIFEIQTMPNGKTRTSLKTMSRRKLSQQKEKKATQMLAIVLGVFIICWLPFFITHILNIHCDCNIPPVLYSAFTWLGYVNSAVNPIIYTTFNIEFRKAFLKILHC
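PathHunter beta-arrestin assay in DiscoveRx D2 cells. Compounds were added with an EC20 of dopamine (50 nM final) for 90 min at 37 deg C. Luminescence was read 1 h after detection reagent, with 57 uM dopamine as the EC100 control.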
Sfp inh = qHTS Assay for Inhibitors of Bacillus subtilis Sfp phosphopantetheinyl transferase (PPTase); 4'-phosphopantetheinyl transferase ffp (Bacillus subtilis), Q9F4F7; Biochemical Sfp PPTase activity, qHTS; Potency, µM, for the others: max response, negative = inhibition, actives largely listed as inhibitors; hit rate 3.5% among 310,000; active = well fitted inhibition curve with a large enough effect; inconclusive = small, poorly fitted or top-dose-only effect, or another doubt; inactive = no such curve, though single readings can be large or run the other way;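 note: the enzyme is Sfp with the accession as filed and its product quenches rhodamine fluorescence; potency is the fitted concentration of half-maximal effect; 0% = enzyme reaction without inhibitor and -100% = no enzyme wells; top concentration of the series not given in the record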
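Sfp 15 nM + cpd, 15 min RT; start w/ rhodamine-CoA 5 uM, BHQ-2-YbbR 12.5 uM (final); 50 mM Hepes pH 7.6, 10 mM MgCl2, 0.01% NP-40, 0.01% BSA; read 525/598 nm at 0 and 30 min.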
ClpP mod = qHTS Assay for Activators of ClpP | ATP-dependent Clp protease proteolytic subunit (Bacillus subtilis (strain 168)), P80244 | purified B. subtilis ClpP, FRET peptide cleavage, 20 min | Potency, µM (series often up to 57.5 µM), for the others: top-dose activity change, negative = active | hit rate 1.9% among 340,000; active = well fitted falling curve with a large enough effect; inconclusive = small, poorly fitted or top-dose-only effect; inactive = no such curve, though single readings can be large or run the other way; note: potency is the fitted concentration of half-maximal effect; the source files actives as falling curves though it sought activators and does not explain the sign; nearly all actives have a fitted effect of over 65% in size; many hits overshoot -100%
Target sequence (P80244 whole entry, looked up): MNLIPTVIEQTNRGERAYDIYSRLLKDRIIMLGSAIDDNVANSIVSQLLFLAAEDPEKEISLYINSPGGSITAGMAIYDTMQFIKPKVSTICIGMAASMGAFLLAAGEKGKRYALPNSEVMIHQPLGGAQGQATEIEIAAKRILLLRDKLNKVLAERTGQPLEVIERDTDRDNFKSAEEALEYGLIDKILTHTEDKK
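FRET quenching reversal measured ClpP activation: 10 microg/mL B. subtilis ClpP at pH 8 with the FRET-FV decapeptide, read at 430 nm after 320 nm excitation. The 20-min minus 0-min signal was scaled between DMSO/no-enzyme wells and ADEP (5.8 microM final).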
The depositor's hits bear a star; ? = inconclusive; · = no result given; [ ] = another dose, or the depositor's remark.

SMILES | Menin-MLL FL inh | gsp antagonist | TRPV1 potentiator | gsp agonist | D2 potentiator | Sfp inh | ClpP mod
O=C(NCCOc1ccccc1)N1[C@H]2CC[C@@H]1C=C(c1ccc(F)cc1OCc1ccccc1)C2 | · | · | · | -112%[inhibitor] | 7 | · | -2.3%
COC(=O)[C@H](Cc1ccccc1)NC(=O)Nc1ccc(C)cc1 | 0.7 | 5% | -20 | 7% | -5 | 1% | -2.2%
Cc1c(O)nc2ccccn2c1=O | 0.4 | 10% | 10 | -5% | 2 | 17% | ·
CCCc1[nH]nc2c1C(c1ccc(OC(=O)N3CCOCC3)cc1)C(C#N)=C(N)O2 (stereo unspecified) | 4.7 | -22% | 7 | -39%[inhibitor] | -17 | 14% | -8.3%
CC(C)(CNS(=O)(=O)c1ccc(Br)s1)N1CCOCC1 | · | 14% | · | -41%[inhibitor] | 2 | · | -3.8%
O=C(N/C=C/c1ccco1)OCc1ccccc1 | ? | 5% | 3 | -20% | -5 | -13% | ·
Cc1cccc(C)c1NC(=O)CN(C)C(=O)C1CCCCC1 | · | 4% | 12 | -23% | -1 | · | -1.2%
COc1ccc(Cl)cc1NC(=S)NNC(=O)CC(C)C | 2.5 | -39% | -6 | 11%[15.4 µM] | -15 | 23% | ·
COCC(C)NC(=O)c1cccc(Cl)c1 (stereo unspecified) | 0.0 | 12% | 9 | 2% | -6 | -1% | -0.4%
CCNC(=S)NNC(=O)Cc1ccccc1 | -1.2 | -5% | -3 | 0% | -12 | 13% | -2.1%
COc1ccc(Cl)cc1NC(=O)c1cc(S(=O)(=O)N2CCCC2)cn1C | -0.3 | -12% | 3 | -57%[inhibitor] | -4 | 4% | -2.5%
COc1ccc(N2CC(C(=O)Nc3nc4ccc(OC)cc4s3)CC2=O)cc1 (stereo unspecified) | 1.2 | -20% | ? | -6%[15.4 µM] | 1 | -15% | ·
COCCCNC(=S)N1CCN(c2ccc([N+](=O)[O-])cc2)CC1 | 4.9 | ? | -23 | -18% | -14 | 21% | 1.3%
OCc1c[nH]c2ccccc12 | 0.2 | 3% | -2 | · | -1 | 1% | -7.7%
Cc1cc(N(CC(=O)O)S(C)(=O)=O)ccc1Br | -2.5 | 7% | 2 | 18% | -7 | 18% | 0.0%
Cc1sc2ncnc(NCc3ccccc3)c2c1C | 1.6 | ? | -17 | -29% | -1 | 16% | 1.8%
CCOC(=O)c1ccccc1NS(=O)(=O)c1ccc(C)cc1 | 2.3 | -12% | -2 | 17% | 9 | 8% | -1.1%
CC(C)Cn1c(SC(C)C(=O)NCC2CCCO2)nc2ccc(Cl)cc2c1=O (stereo unspecified) | · | -9% | -11 | 0% | -14 | · | -8.3%
Cc1ccc(NC(=O)C2c3ccccc3Oc3ccccc32)nc1 | 2.0 | 1% | -10 | ? | 5 | 6% | ·
O=C(c1cccc(F)c1)N1CCN=C1SCc1cccnc1 | 1.2 | 0% | -4 | -16% | -9 | 12% | -0.2%
CC(C)(C)c1ccc(/C=N/NC(=S)NCc2ccccc2)cc1 | 8.9 | 6% | 5 | -17%[15.4 µM] | -6 | 14% | -2.1%
CCCCn1c(SCC(=O)Nc2cc(C)on2)nnc1-c1ccco1 | -2.1 | 4% | 4 | -7% | -4 | 8% | -0.6%
CC(=O)N1CCN(S(=O)(=O)c2cccc(C(=O)NCCc3ccc(Cl)cc3)c2)CC1 | · | -12% | -13 | -24% | -5 | · | -1.4%
COc1ccccc1N1C(=O)c2ccc(C(=O)Nc3ccc(F)cc3)cc2C1=O | -9.2 | -21% | 6 | 2% | -7 | 20% | -1.1%
CC1=NN(C(=O)COc2ccc(C)c(C)c2)C(O)(c2ccccc2)C1 (stereo unspecified) | 2.2 | 3% | -2 | 2%[15.4 µM] | -1 | -3% | ·
C/C(CC(=O)Nc1ccccn1)=N\NC(=O)c1cccc(C)c1 | 0.8 | · | 9 | -18%[15.4 µM] | -10 | 8% | ·
COc1cc(C(N)=O)cc(Cl)c1OCc1ccccc1 | 3.5 | 5% | 8 | -11% | -3 | 8% | -15%
Cc1ccc(F)cc1NC(=O)/C=C/c1ccc(S(=O)(=O)N2CCOCC2)cc1 | · | -22% | · | -2%[15.4 µM] | 15 | · | -1.3%
COc1ccc(-c2ccc3[nH]c4c(c3c2)CCN2C[C@@H]([C@H](C)OC(=O)Nc3cc(Cl)cc(Cl)c3)[C@@H](N(C)C(=O)Nc3cc(Cl)cc(Cl)c3)C[C@@H]42)cc1 | · | · | · | -9% | 3 | · | -2.7%
Cc1cccc(NC(=S)N2CCC(C(N)=O)(N3CCCCC3)CC2)c1C | -4.1 | -6% | -2 | ? | -4 | 28% | -2.5%
O=C(C1=NN(c2ccccc2)C2C(=O)N(c3ccc(Cl)cc3)C(=O)C12)c1ccccc1 (stereo unspecified) | ? | 10% | ? | 8% | 22 | 4% | 0.7%
Cc1ccc(N(C)S(=O)(=O)c2cccc(C(=O)NCC(c3ccco3)N3CCCC3)c2)cc1 (stereo unspecified) | · | ? | 20 | -44%[inhibitor] | -4 | · | -1.7%
O=C1CC(=O)Nc2cc(S(=O)(=O)Nc3cccc(C(F)(F)F)c3)ccc2N1 | · | 15% | 7 | ? | 8 | 11% | -1.3%
Oc1ccc(-c2[nH]ncc2-c2nc3ccccc3s2)c(O)c1 | -0.4 | -14% | 19 | -7% | -1 | 3% | -25%
Cc1ccc(C(C(=O)NC2CCCCC2)N(CC2CCCO2)C(=O)CCCC(=O)Nc2ccccn2)cc1 (stereo unspecified) | 1.4 | 12% | 22 | -2%[15.4 µM] | -7 | 15% | -5.2%
CNc1nc(-c2c(C)n(C)c3ccc(OC)cc23)cs1 | 0.9 | 1% | 17 | 63%[15.4 µM] | -13 | -15% | 0.3%
COC(=O)c1scc(S(=O)(=O)C(C)(C)C)c1N | 6.1 | -8% | 10 | 15%[15.4 µM] | -4 | 0% | 0.1%
O=C(Nc1ccccc1-c1ccccc1)NC1CCN(C(=O)N2CCOCC2)CC1 | 0.4 | -8% | 12 | -3% | 14 | 8% | 0.3%
COC(C[C@H]1O[C@H]1[C@H](O)[C@@H](C)OCc1ccccc1)OC | -4.2 | 19% | -2 | · | 1 | 19% | -0.8%
Cc1cccc(C(=O)NCC(c2ccco2)N2CCc3ccccc32)c1 (stereo unspecified) | · | -6% | 4 | -3%[15.4 µM] | -2 | · | ·

Profiles, quoted from the list. Order of values: Menin-MLL FL inh | gsp antagonist | TRPV1 potentiator | gsp agonist | D2 potentiator | Sfp inh | ClpP mod
`Cc1ccc(N(C)S(=O)(=O)c2cccc(C(=O)NCC(c3ccco3)N3CCCC3)c2)cc1` (stereo unspecified) as listed: · | ? | 20 | -44%[inhibitor] | -4 | · | -1.7%
`CNc1nc(-c2c(C)n(C)c3ccc(OC)cc23)cs1` as listed: 0.9 | 1% | 17 | 63%[15.4 µM] | -13 | -15% | 0.3%
`O=C1CC(=O)Nc2cc(S(=O)(=O)Nc3cccc(C(F)(F)F)c3)ccc2N1` as listed: · | 15% | 7 | ? | 8 | 11% | -1.3%
`O=C(C1=NN(c2ccccc2)C2C(=O)N(c3ccc(Cl)cc3)C(=O)C12)c1ccccc1` (stereo unspecified) as listed: ? | 10% | ? | 8% | 22 | 4% | 0.7%
`Cc1ccc(C(C(=O)NC2CCCCC2)N(CC2CCCO2)C(=O)CCCC(=O)Nc2ccccn2)cc1` (stereo unspecified) as listed: 1.4 | 12% | 22 | -2%[15.4 µM] | -7 | 15% | -5.2%

(list continues)
SMILES | Menin-MLL FL inh | gsp antagonist | TRPV1 potentiator | gsp agonist | D2 potentiator | Sfp inh | ClpP mod
CCC(C)(c1ccc(C=O)s1)c1ccc(C=O)s1 | 1.9 | -29% | 17 | -9% | -9 | 3% | -0.5%
CCN1C(=O)c2cccc3c(S(=O)(=O)NC(Cc4ccccc4)C(=O)O)ccc1c23 (stereo unspecified) | -6.6 | 8% | 3 | 20%[15.4 µM] | -6 | 4% | ·
Cc1nc(C(C)NC(=O)c2cc(COc3ccc(C)c(C)c3)on2)c(C)s1 (stereo unspecified) | 5.0 | -6% | 4 | 9% | -5 | 0% | 2.0%
COc1ccc(C(C)=O)c2c(O)cccc12 | -0.2 | -7% | -1 | 4% | 26 | -1% | -3.0%
COc1ccc(CNC(=O)C/C(C)=N/NC(=O)C(c2ccccc2)c2ccccc2)cc1 | 1.1 | 0% | 1 | 1% | 5 | 4% | 1.2%
Cn1c(SCC(=O)N/N=C/c2ccc([N+](=O)[O-])s2)nnc1-c1ccc(Cl)cc1 | 24 | 2% | 24 | -6%[15.4 µM] | 3 | -5% | 1.1%
CN(C)S(=O)(=O)c1cc(NC(=O)[C@H](Cc2ccccc2)N2C(=O)c3ccccc3C2=O)ccc1Cl | 4.3 | -11% | 14 | 18%[15.4 µM] | -15 | 15% | -4.8%
O=C1Nc2ccccc2C1=NN1CCCCCC1 | · | 1% | · | 6%[15.4 µM] | -20 | · | -2.2%
CCOC(=O)c1cnc(SC)nc1Oc1cccc(NC(=O)c2cccc(Cl)c2Cl)c1 | 2.6 | -5%[15.4 µM] | -12 | 14% | -19 | 7% | -1.5%
CCn1cc(C(=O)OC)c(=O)c2cc(S(=O)(=O)N(C)C3CCCCC3)ccc21 | 0.5 | -7% | 17 | -37% | -4 | 7% | -1.4%
Cc1ccc(OCc2cc(C(=O)N3CCN(C)C[C@@H]3c3ccccc3)no2)cc1C | -0.4 | 2% | -12 | -4% | 8 | -11% | -5.7%

Screening results (PubChem BioAssay)
